HPGD block: blocks human HPGD enzyme activity | P15428 | purified HPGD, NADH fluorescence kinetic, PGE2 substrate | Potency, µM, without a hit: at the highest dose activity change, negative = inhibition, actives largely listed as inhibitors | hit rate 4.3% among 150,000; active = well fitted inhibition curve with a large enough effect (not every such curve was filed as active); inconclusive = small, poorly fitted or top-dose-only effect, or another doubt; inactive = no such curve, though single readings can be large or run the other way;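 further: top concentration of the series not given in the record; plate controls included wells without enzyme; inactives centre near -10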
Target sequence (P15428 whole entry, looked up): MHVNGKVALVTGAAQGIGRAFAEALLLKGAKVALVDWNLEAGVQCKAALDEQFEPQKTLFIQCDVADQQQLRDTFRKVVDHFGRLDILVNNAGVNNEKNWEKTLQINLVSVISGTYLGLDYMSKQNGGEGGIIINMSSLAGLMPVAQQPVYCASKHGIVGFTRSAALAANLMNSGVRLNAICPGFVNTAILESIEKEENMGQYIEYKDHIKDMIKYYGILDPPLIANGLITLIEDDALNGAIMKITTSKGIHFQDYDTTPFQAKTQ
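NADH formation kinetics: reaction with 30 uM PGE2 and 1 mM NAD+ (final), 20 nM enzyme, Tris-HCl pH 8 with Tween 20, after 15 min compound preincubation at room temperature. Fluorescence change, last versus first of five reads.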
* hit, by the source's call; ? = inconclusive; & = joins results of further samples. On the % scale 0 is the no-effect control and ±100 the full control effect; potency means the concentration at half of the fitted maximal effect. This is a subset; the hit share may differ from the screen's.

Structure	HPGD block
Cc1cc(/C=C(\C#N)C(=O)Nc2ccc(Cl)cc2)c(C)n1-c1ccc(N2CCOCC2)c([N+](=O)[O-])c1	-6%
COc1ccc2nc3oc(C(=O)NC4CCN(Cc5ccccc5)CC4)cc3cc2c1	?
CCCC(=O)c1ccc(N2CCN(S(=O)(=O)c3ccc(C)cc3)CC2)c(F)c1	-21%
Cc1cc(C)nc(-n2nc(C)cc2NC(=O)CNCc2ccccc2)n1	-11%
COc1ccc(/C=C2\N=C(C)N(c3ccc4ccccc4c3)C2=O)cc1OC	-11%
COc1ccc(C2=CC3=C(Br)C(=O)C(C)(OC(=O)c4ccco4)C(=O)C3=CO2)cc1 (stereo unspecified)	-7%
COc1ccc(OCCCN2CCCC(C)C2)cc1 (stereo unspecified)	-2%
COc1cc(CN2CCN(c3cccc(C)c3C)CC2)cc(OC)c1O	-9%
COc1cccc(CN2CCN(C(=O)CC(C)C)CC2)c1	-6%
O=C(O)c1ccc(Br)c(S(=O)(=O)N2CCCC2)c1	-12%

Sorted by the number under HPGD block (high to low): 4 of the compounds above.
Structure	HPGD block
COc1ccc(OCCCN2CCCC(C)C2)cc1 (stereo unspecified)	-2%
COc1cccc(CN2CCN(C(=O)CC(C)C)CC2)c1	-6%
COc1ccc(C2=CC3=C(Br)C(=O)C(C)(OC(=O)c4ccco4)C(=O)C3=CO2)cc1 (stereo unspecified)	-7%
CCCC(=O)c1ccc(N2CCN(S(=O)(=O)c3ccc(C)cc3)CC2)c(F)c1	-21%

Part of the list above, with each value named:
> Cc1cc(C)nc(-n2nc(C)cc2NC(=O)CNCc2ccccc2)n1
- HPGD block = -11%
> COc1ccc(/C=C2\N=C(C)N(c3ccc4ccccc4c3)C2=O)cc1OC
- HPGD block = -11%
> COc1ccc(C2=CC3=C(Br)C(=O)C(C)(OC(=O)c4ccco4)C(=O)C3=CO2)cc1 (stereo unspecified)
- HPGD block = -7%

Fetched by compound from the list above:
Structure	HPGD block
COc1ccc(/C=C2\N=C(C)N(c3ccc4ccccc4c3)C2=O)cc1OC	-11%
COc1cc(CN2CCN(c3cccc(C)c3C)CC2)cc(OC)c1O	-9%

The listing continues.
Structure	HPGD block
CCOc1cc(C2C(C(=O)N3CCCCC3)=C(C)NC3=C2C(=O)CC(C)(C)C3)ccc1O (stereo unspecified)	-8%
CC1(C)Cc2ccccc2C(N)=C1C#N	-8%
Cc1ccc(SCC(=O)NCCSCc2ccccc2)cc1	-19%
COc1ccc(COc2ccccc2C(N)=O)cc1F	-17%
Cc1cc(C)c2c(-n3cccc3)nn(CC#N)c2n1	-5%
CCCCCOc1ccc(Br)cc1/C(C)=N/NC1=NCCN1	-2%
CCNC(=O)CCS(=O)(=O)c1ccc2ccccc2c1	32µM*
CCCc1nc2ccccc2c(C(=O)OCC(=O)NCc2ccco2)c1CC	-19%
CCOC(=O)N1CCC(NS(=O)(=O)c2cc3c(cc2Cl)NC(=O)CO3)CC1	-6%
CCC(=O)c1ccc(OCC(=O)Nc2nn3cnnc3s2)cc1	-21%

(list continues)
Structure	HPGD block
COC(=O)c1ccc(NC(=O)CN2C(=O)CCC2=O)cc1	32µM*
Cc1ccc(C(=O)COC(=O)C(C)N2C(=O)C3C4C=CC(C4)C3C2=O)cc1 (stereo unspecified)	4%
CCCCCCC(=O)Nc1nc(C)c(-c2csc(Nc3cc(Cl)ccc3C)n2)s1	-22%
CCOC(=O)c1c(-n2c(C)cc(C=O)c2C)sc2c1CCCC2	0%
Cc1ccc(-n2ncc3c(=O)[nH]c(SC(C)C)nc32)cc1	-3%
Cc1ccc(NC(=O)COC(=O)/C=C/c2ccco2)cc1S(=O)(=O)N(C)C	-5%
CCCCN(CCCC)S(=O)(=O)c1ccc(C(=O)Nc2nnc(CSC)o2)cc1	-22%
COC(=O)C1(Cc2ccccc2)NC(c2ccc(F)cc2)C2C(=O)N(C)C(=O)C21 (stereo unspecified)	3%
Cc1cccc2nc(C(F)(F)F)nc(=O)n12	?
CN1CCc2c(sc3c2c(=O)n(-c2ccc(Cl)cc2)c2nncn32)C1	-8%

Additional structures.
Structure	HPGD block
COc1ccc2nc(NC(=O)CSc3nc4cccnc4n3C)sc2c1	-18%
COc1ccc(C(=O)Oc2c(CN3CCOCC3)cc(Cl)c3cccnc23)cc1	-11%
O=C(NNS(=O)(=O)c1ccccc1[N+](=O)[O-])c1cccc([N+](=O)[O-])c1	-10%
COc1ccc(S(=O)(=O)N(C)CC(=O)Nc2ccc3c(c2)OCCO3)cc1OC	2%
CCc1nc(N2CCN(C(=O)c3ccco3)CC2)c2c3c(sc2n1)CCCC3	-14%
Cc1ccc(O)c(-c2cc(C(F)(F)C(F)F)[nH]n2)c1	16µM*
CN(C)S(=O)(=O)c1ccc(C(=O)N(c2ccccn2)c2ccccn2)cc1	-3%
Cc1cc2nnc(SCC(=O)N3C(C)CCCC3C)n2c(N)n1 (stereo unspecified)	-3%
CCOc1ccc(=O)n(-c2ccccc2)n1	-10%
Fc1cccc(NC(=S)NCc2ccc(Cl)cc2)c1	-17%

Other structures follow.
Structure	HPGD block
Cc1ccc(C2=NC3(CCCC3)N=C2SCC(=O)Nc2ccc3c(c2)OCCO3)cc1	-12%
O=C(COc1ccc(Cl)cc1)OCC(=O)N1CCCC1	-9%
CCOc1ccc(NC(=S)NN2CCN(C)CC2)cc1	-7%
CCCn1nc(Oc2nc(NCC)nc(NC(C)C)n2)ccc1=O	-5%
O=C(NC1CCCC1)C1CCC(=O)N1CCc1ccccc1 (stereo unspecified)	-27%
COc1cc(NC(=O)Cn2nc(C(F)(F)F)c3c2CCCC3)cc(OC)c1OC	-4%
COc1ccc(NC(=O)Cn2c(=O)n(Cc3ccco3)c(=O)c3ccccc32)cc1	-5%
C=CCn1c(=O)c2ccccc2n2c(SCC(=O)Nc3sc(C(=O)N(CC)CC)c(C)c3C(=O)OCC)nnc12	-19%
CC(C)(C)c1ccc(C(=O)N2CCN(c3nc4ccccc4o3)CC2)cc1	-6%
Cc1c(Cl)c([N+](=O)[O-])nn1CCCC(=O)Nc1cccc(Cl)c1	-13%

Other compounds:
Structure	HPGD block
Cc1ccccc1N=Cc1cc2c(cc1[N+](=O)[O-])OCO2	-2%
COc1ccc(NC(=O)CSc2nc3c(c(=O)n2-c2ccc(F)cc2)SCC3)cc1	-5%
Cc1cnc(-c2nnc(N(C)C(=O)c3cccnc3)s2)cn1	-21%
O=C(NNC(=O)c1cccnc1SCc1cccc([N+](=O)[O-])c1)c1ccc(F)cc1	-8%
CCOC(=O)CSc1nnc(CSc2nc3ccccc3s2)n1C	-24%
c1ccc(-n2c(Sc3cnccn3)nnc2-c2cccs2)cc1	-19%
COc1ccc(N2C(=O)CSC2c2cccc(OC)c2OC)cc1 (stereo unspecified)	-2%
COc1ccc(C2C(C(=O)NCCN(C)C)c3cc(OC)c(OC)cc3C(=O)N2C)cc1OC (stereo unspecified)	-13%
COC(=O)C1=CN(C)C=C(C(=O)OC)C1c1ccc(Cl)cc1Cl	?
CC1=C(C(=O)N(C)C)C(c2cccc(Cl)c2)NC(=O)N1 (stereo unspecified)	-12%

(listing goes on)
Structure	HPGD block
CCOC(=O)c1c(N)n[nH]c1-c1ccc(OC)cc1	-13%
O=C1CSc2ccc(C(=O)N3CCN(c4ccccn4)CC3)cc2N1	-3%
Cc1ccc(/C=N\Nc2cn[nH]c(=O)c2Cl)cc1	?
COc1ccc(-n2nnnc2-c2cn(C)nc2C(F)(F)F)cc1	-6%
COc1cccc(N2C(=O)C3CCCN3C2c2ccc(Cl)cc2)c1 (stereo unspecified)	-8%
Cn1c2c(c(O)c(-c3ccccc3)c1=O)C(=O)CC(C)(C)C2	-5%
CCCCN(Cc1ccco1)C(=O)c1cc2c(=O)[nH]c3ccc(C)cc3c2s1	?
Cc1c(C(=O)O)c(-c2ccccc2)nn1-c1ccccc1	-9%
CCCC(=O)Nc1ccccc1-c1nnn(CC(=O)Nc2ccc(OC)cc2)n1	-5%
CCOC(=O)c1[nH]c(C)c(C(=O)OCC(=O)N2CCCCC2C)c1C (stereo unspecified)	-28%

Remaining list, next part:
Structure	HPGD block
CCSc1nnc(-c2sc3nnc(-c4ccccc4)c(-c4ccccc4)c3c2N)o1	-10%
Cc1cccn2cc(CCNS(=O)(=O)c3ccc4c(c3)OCCO4)nc12	-4%
COc1cccc(Nc2nnc(SCc3nc4ccccc4s3)s2)c1	-29%
CC(C)C(=O)NCCc1nc2ccccc2n1CCCOc1ccc(Cl)cc1	-10%
CC(C)Oc1ccc(/C=C(\NC(=O)/C=C/c2ccco2)C(=O)NCCc2nc3ccccc3[nH]2)cc1	-8%
O=C(COC(=O)c1ccco1)Nc1ccc2c(c1)OCCO2	-13%
N=c1c[n+](N2CCOCC2)[n-]o1	-24%&-8%
O=C(NC(NC(=S)Nc1cccc(C(=O)O)c1)C(Cl)(Cl)Cl)OCc1ccccc1 (stereo unspecified)	-7%
Cc1cc(NC(=O)CSc2nnc(Cc3ccccc3)n2C)no1	-15%
Cc1cc(NC(=O)CSc2nnc(-c3ccncc3)n2N)ccc1Br	-12%

Continued:
| SMILES | HPGD block |
| --- | --- |
| O=C(Nc1ccc(N2CCN(C(=O)c3ccc(Cl)cc3)CC2)cc1)c1ccc(Br)o1 | -2% |
| C=CCOC(=O)N[C@H](/C(C(=O)OC)=C(\C)NCc1ccccc1)c1cccc(C(F)(F)F)c1 | -3% |
| CC1CCN(C(=O)c2ccc(S(=O)(=O)Cc3cccc(F)c3)c([N+](=O)[O-])c2)CC1 | -25% |
| CC(C)CN1CC[C@@]2(CCCN(C(=O)c3cccc(F)c3)C2)C1 | -8% |
| COc1cccc(NC(=O)CSc2nncn2N)c1 | -9% |
| COc1ccc([N+](=O)[O-])cc1NC(=O)CCN1CCN(c2ccccc2OC)CC1 | -7% |
| CN1CCN(C(=O)c2cc3nc(-c4ccc(Cl)cc4)cc(C(F)(F)F)n3n2)CC1 | ? |
| CC12CCC(C(=O)Nc3ccc4c(c3)OCCO4)(OC1=O)C2(C)C (stereo unspecified) | -4% |
| C/C(=N\NC(=O)Cn1c(-c2ccccn2)nc2ccccc21)c1ccccc1 | -7% |
| COc1ccc(C2NC(=O)NC(c3ccccc3)=C2c2nc3ccccc3s2)cc1 (stereo unspecified) | -19% |
| C/C(NC(=O)c1ccccc1)=C1/C(=O)CC2C1C2(C)C (stereo unspecified) | ? |
| COc1ccccc1N1CCN(C(=O)c2oc3ccc(Br)cc3c2C)CC1 | -21% |
| CCN(Cc1ccccc1)Cc1c(C)[nH]c2c(C)c(C)ccc2c1=O | -21% |
| FC(F)(F)c1nc2ccccc2nc1N/N=C\c1ccccc1 | -23% |
| O=C1c2ccccc2NC(c2ccc(F)cc2)N1Cc1ccco1 (stereo unspecified) | ? |

Later entries
| SMILES | HPGD block |
| --- | --- |
| O=C(N/N=C/c1cccc(Br)c1)c1ccc(Cn2cc(Br)cn2)o1 | -13% |
| CN1C=CC=C/C1=C(\C#N)c1nc2ccccc2[nH]1 | -6% |
| COCCN(C(=O)Cn1nnc2ccccc21)C(C(=O)NC1CCCC1)c1cccc(OC)c1OC (stereo unspecified) | 4% |
| COc1ccc(-n2nc(C(=O)Nc3ccc4c(c3)OCO4)c3c4ccccc4n(C)c3c2=O)cc1 | -28% |
| CCOc1cc2[nH]c(=O)n(CCC(=O)NCc3ccc(OC)cc3)c(=O)c2cc1OCC | -25% |
| CCc1ccc(C2CC(c3ccc(Cl)cc3)=NNC2=O)cc1 (stereo unspecified) | -11% |
| COc1cc(C(=O)NCCC(C)C)ccc1OCc1ccc(Cl)cc1Cl | -24% |
| COc1ccc(C)c2sc(=NC(=O)c3ccccc3)n(C)c12 | ? |
| COC(=O)CS(=O)(=O)c1cc(Br)cc2c1N(C(C)=O)CC2 | -2% |
| COc1ccc(-n2cnc3c(cnn3CCC#N)c2=N)cc1 | -20% |
| CCOc1ccc(S(=O)(=O)NCCSc2ccccc2)cc1 | -4% |
| Cc1c(NC(=O)Nc2ccc(Cl)c(Cl)c2)c(=O)n(-c2ccccc2)n1C | -10% |
| COc1ccc(CN2CCC(C(=O)NCCc3ccc(OC)c(OC)c3)CC2)c(OC)c1 | -6% |
| CCOc1cc(N2CCOCC2)c(OCC)cc1NC(=O)CN1C(=O)NC(Cc2ccccc2)C1=O (stereo unspecified) | -11% |
| CCC(=O)Nc1ccc(/C(C)=N/NC(=O)c2c(-c3ccccc3Cl)noc2C)cc1 | -7% |

Following part.
| SMILES | HPGD block |
| --- | --- |
| C=CCN1C=C2C(=O)C(C)(OC(=O)CCC(=O)OC)C(=O)C=C2C=C1C1CC1 (stereo unspecified) | -10% |
| c1cncc(-c2cccnc2)c1 | -13% |
| O=c1[nH]c(Nc2ccccc2)cc2ccccc12 | ? |
| COc1ccc(N(CC(=O)Nc2cccc(C(C)=O)c2)S(C)(=O)=O)cc1OC | -15% |
| COc1ccc(NC(=O)Cn2cc(S(=O)(=O)Cc3ccccc3)c3ccccc32)c(OC)c1 | -5% |
| O=C(c1cccnc1)N1CCN(S(=O)(=O)c2ccc(Cl)cc2)CC1 | -7% |
| COc1ccc2cc(C#N)c(SCC(=O)N3CCCC3)nc2c1 | -24% |
| Cc1sc2ncnc(NCc3cccs3)c2c1C | -21% |
| CCc1ccc(NC(=O)C(=O)NCCN2CCN(C(=O)c3ccco3)CC2)cc1 | -10% |
| CCOC(=O)c1[nH]c2ccccc2c1NC(=O)C(CC)CC | -15% |
| CC1Cc2ccccc2N1C(=O)Cc1cccs1 (stereo unspecified) | -8% |
| COc1ccc(OC)c(NC(=O)C(=O)NCc2ccncc2)c1 | -11% |
| Cc1nc2sc(C(c3cccc(F)c3)N3CCOCC3)c(O)n2n1 (stereo unspecified) | -2% |
| COc1ccc(C2=NO[C@@H]3[C@@H]4C[C@@H]([C@H]5C(=O)N(c6ccc7c(c6)OCO7)C(=O)[C@@H]45)[C@H]23)cc1OC | -14% |
